Screening data (PubChem BioAssay)
HNF4A DNA FP: change in binding of human HNF4A to DNA, primary screen, biochemical, fluorescence polarization, FITC-DNA. AID 1224865, 2016. 1 h. actives 0.3% (n = 360,000). activity change, % at 10 µM; in the data active means activity change above about 30%, passing the limit was not always enough;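 further: controls were the assay level and a saturating level of protein; the project sought stronger binding though the title names inhibitors; some compounds called inactive have numbers as strong as hits; positive values seem to mean higher polarization but the record does not say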
Target sequence (P41235 whole entry, looked up): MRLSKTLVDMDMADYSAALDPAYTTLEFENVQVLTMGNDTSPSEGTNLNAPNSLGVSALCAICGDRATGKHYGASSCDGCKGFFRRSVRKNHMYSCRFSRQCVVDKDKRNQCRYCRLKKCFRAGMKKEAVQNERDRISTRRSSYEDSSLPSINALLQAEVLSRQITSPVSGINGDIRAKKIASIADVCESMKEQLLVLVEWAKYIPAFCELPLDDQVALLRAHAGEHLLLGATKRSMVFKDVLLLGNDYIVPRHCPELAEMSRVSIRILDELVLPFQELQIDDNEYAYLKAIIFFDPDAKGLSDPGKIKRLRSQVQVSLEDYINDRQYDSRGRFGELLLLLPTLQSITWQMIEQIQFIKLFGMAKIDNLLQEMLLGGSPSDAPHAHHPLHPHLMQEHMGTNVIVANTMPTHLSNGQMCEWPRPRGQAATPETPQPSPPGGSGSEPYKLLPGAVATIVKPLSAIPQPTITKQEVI
Active calls of the source: *.

The first three compounds, to show the layout:
#	SMILES	HNF4A DNA FP
1	O=[N+]([O-])c1ccccc1S(=O)c1ccccc1[N+](=O)[O-]	3.3
2	COC(=O)c1ccccc1C(=O)c1c(C)cc(C)cc1C	-1.4
3	O=C(CC[C@H]1O[C@@H](n2cnc3c(NC(=O)c4ccccc4)ncnc32)[C@H](O)[C@@H]1O)NCC1CCN(Cc2ccccc2)CC1	0.1

The listing, repeating the preview:
#	SMILES	HNF4A DNA FP
1	O=[N+]([O-])c1ccccc1S(=O)c1ccccc1[N+](=O)[O-]	3.3
2	COC(=O)c1ccccc1C(=O)c1c(C)cc(C)cc1C	-1.4
3	O=C(CC[C@H]1O[C@@H](n2cnc3c(NC(=O)c4ccccc4)ncnc32)[C@H](O)[C@@H]1O)NCC1CCN(Cc2ccccc2)CC1	0.1
4	COc1cc(F)ccc1-c1cc(C(=O)Nc2ccc(C)c(NS(C)(=O)=O)c2)[nH]n1	1.1
5	COc1ccc(CN2C(=O)CCC2(C)c2nc3ccccc3[nH]2)cc1 (stereo not given)	3.9
6	O=C1Nc2ccccc2N(C(=O)c2c(F)cccc2F)C1c1nc2ccccc2[nH]1 (stereo not given)	-9.2
7	O=C(Nc1ccc(F)c(Cl)c1)c1ccc2sc([C@@H]3O[C@H](CO)[C@H](O)[C@H](O)[C@H]3O)nc2c1	-2.6
8	C#Cc1ccc(NC(=O)C2(C)CCN2C(=O)C/C=C/c2ccccc2)cc1 (stereo not given)	0.5
9	CCCCN(C=O)c1c(CC)nc2ccc(C(=O)N(C)Cc3ccccc3)cn12	-0.2
10	O=C(C[C@H]1C=C[C@@H](NC(=O)c2ccncc2)[C@@H](CO)O1)NCC1CC1	1.9
11	CN1CCN(C(=O)c2ccc(-c3cnc4cccnn34)cc2)CC1	-0.7
12	CC1(C(=O)Nc2ccc3c(c2)OCO3)CCN1C(=O)Cc1cccs1 (stereo not given)	-3.9
13	S=C1NCc2cncnc2N1	0.5
14	O=C(NCc1ccc(F)cc1)C(=O)NCC1OCCN1S(=O)(=O)c1cc(F)ccc1F (stereo not given)	3.3
15	CCNC(=O)C1CCCN(C(=O)c2cnc3ccccc3n2)CC1 (stereo not given)	3.9
16	CCNC(=O)C1CCCN(Cc2ccc3ccccc3c2Br)CC1 (stereo not given)	1.9
17	Cc1ccc2nc(C3CCCCC3)c(Cc3ccccc3C(F)(F)F)n2c1	1.4
18	CN1CCCC(C)(C(=O)Nc2cccc(Oc3ccccc3)c2)C1 (stereo not given)	7.3
19	Cc1ccc(C)c(CC(=O)N2CCCC(c3cc(C(=O)Nc4ccc5c(c4)OCO5)no3)C2)c1 (stereo not given)	-1.6
20	CNc1cncc(-c2cc(OC)c(OC)c(OC)c2)n1	1.1
21	COCCNC(=O)C1CCCN(C(=O)/C=C/c2ccccc2)CC1 (stereo not given)	-1.4
22	CC(C)C[C@@H](COCc1ccc([N+](=O)[O-])cc1)N1CCN(C(=O)c2ccc(C(F)(F)F)cc2)CCC1=O	-1.6
23	C(=C\c1ccccc1)/CN1CCN(C(c2nnnn2C2CCCCC2)C2CC2)CC1 (stereo not given)	0.1
24	COCCCN1C(=O)C(CC(=O)NCc2cccc3ccccc23)CC(C(=O)N2CCOCC2)=C1C (stereo not given)	0.7
25	CN(C)CCNC(=O)c1cccc(-c2cnc3c(NC=O)cc(-c4cccc(F)c4)cn23)c1	1.6
26	OC[C@@H]1CN(Cc2ccc(Cl)cc2)C[C@H](n2cnc3c(NC4CC4)ncnc32)O1	0.9
27	CCCn1cnnc1CNC(=O)[C@H]1O[C@@H](n2cnc3c(N)ncnc32)[C@H](O)[C@@H]1O	4.1
28	COC(=O)C[C@H]1C=C[C@H](NS(=O)(=O)c2cn(C)cn2)[C@@H](CO)O1	0.7
29	CCNC(=O)C1(C)CCN(C(=O)c2ccc3ccccc3c2)C1 (stereo not given)	0.9
30	CO[C@@H]1CN(C)C(=O)c2cc(NC(=O)Nc3cc(F)ccc3F)ccc2OC[C@H](C)N(C(=O)c2ccccn2)C[C@@H]1C	-0.4
31	C[C@@H]1CN([C@@H](C)CO)C(=O)CCCn2cc(nn2)CO[C@H]1CN(C)S(=O)(=O)c1cn(C)cn1	-1.3
32	COc1cccc(C(C)(O)c2nc(-c3ccc(C)c(C)c3)cs2)c1 (stereo not given)	-2.5
33	CCOC(=O)C1=CCN(S(=O)(=O)c2ccccc2C)C1c1ccc(Cl)c(Cl)c1 (stereo not given)	0.2
34	Cc1cc(Cl)ccc1C(O)c1ncc(-c2ccc3ccccc3c2)[nH]1 (stereo not given)	-3.6
35	CC1(C(=O)Nc2cccc(Oc3ccccc3)c2)CCN1Cc1cc2ccccc2o1 (stereo not given)	1.2
36	COc1ccc(NC(=O)C2Cc3c(-c4ccccc4)ccnc3O2)cc1OC (stereo not given)	1.8
37	CCCCCCCCN1C(=O)[C@H](CC(=O)NCC2CCCCC2)C[C@@]2(C(=O)OCC)CCC=C12	-3.0
38	CC1(C(=O)NCc2ccccc2)Cc2c(-c3ccc(C(N)=O)cc3)ccnc2O1 (stereo not given)	-3.0
39	CC1(C(=O)NS(=O)(=O)c2ccc3ccccc3c2)CCN1C(=O)Cc1ccc(Cl)cc1Cl (stereo not given)	0.6
40	O=C(Nc1cccc2ccccc12)c1ccc2sc([C@@H]3O[C@H](CO)[C@@H](O)[C@H]3O)nc2c1	3.6
41	Cc1cc(Cl)ccc1NC(=O)/N=C1/NC(=O)CS1	5.5
42	COC(=O)[C@]12CCCCC=C1N(Cc1ccccc1)C(=O)[C@H](CC(=O)N1CCCCC1)C2	3.2
43	CC1(C(=O)Nc2cnc3ccccc3c2)CCN1C(=O)CCc1ccccc1 (stereo not given)	-0.6
44	Cc1ccc(S(=O)(=O)N2[C@H](CC(=O)c3ccc(Cl)c(Cl)c3)OC[C@@H]2C(C)C)cc1	3.8
45	COc1ccccc1Cc1c(-c2ccc(C)cc2)nc2ccc(Br)cn12	11
46	CCOC(=O)C1(C)CCCN1C(=O)c1ccc(C(F)(F)F)nc1C (stereo not given)	5.5
47	C[C@H]1CN([C@@H](C)CO)C(=O)CCCn2cc(nn2)CO[C@@H]1CN(C)C(=O)c1ccc(N2CCN(C)CC2)cc1	2.0
48	O=C(c1c(F)cccc1Cl)N(Cc1ccco1)C1CCS(=O)(=O)C1 (stereo not given)	4.0
49	CC(=O)Nc1cc(-c2ccc(C(=O)N3CCOCC3)cc2)cn2c(-c3ccc(S(C)(=O)=O)cc3)cnc12	3.0
50	COc1ccc(C(=O)Nc2cccc(NC(C)=O)c2)cc1	-1.8
51	CC1=C(C(=O)N(C(C)C)C(C)C)CC(CC(=O)NCCc2ccccn2)C(=O)N1CCCN1CCCC1=O (stereo not given)	-2.1
52	COc1ccccc1CNc1nc(Nc2ccccc2-n2cccn2)c2sccc2n1	-2.4
53	CCN(CC)C(=O)c1cccc(-c2csc(C(O)c3cccc(OC)c3)n2)c1 (stereo not given)	5.7
54	CC(O)(c1cccc(F)c1)c1nc(-c2cccc(C#N)c2)cs1 (stereo not given)	0.8
55	CN(Cc1ccccc1)C(=O)c1ccc(Nc2nc(C(N)COCc3ccccc3)cs2)nc1 (stereo not given)	4.3
56	CCOC(=O)C1=CCN(S(=O)(=O)c2ccc(C)cc2)C1c1cccs1 (stereo not given)	0.4

Entries 54 to 56 from above:
#	SMILES	HNF4A DNA FP
54	CC(O)(c1cccc(F)c1)c1nc(-c2cccc(C#N)c2)cs1 (stereo not given)	0.8
55	CN(Cc1ccccc1)C(=O)c1ccc(Nc2nc(C(N)COCc3ccccc3)cs2)nc1 (stereo not given)	4.3
56	CCOC(=O)C1=CCN(S(=O)(=O)c2ccc(C)cc2)C1c1cccs1 (stereo not given)	0.4

The list continues:
#	SMILES	HNF4A DNA FP
57	Cc1cc(NC(=O)C(C)SCC(=O)Nc2ccc(C(=O)OC(C)C)cc2)no1 (stereo not given)	0.8
58	COc1ccccc1C1NC(=O)NC(C)=C1C(=O)OCC1CCCCC1 (stereo not given)	-0.7
59	COC(=O)C[C@@H]1C=C[C@H](NC(=O)Nc2ccc(OC)cc2)[C@@H](CO)O1	1.4
60	CC(=O)C1CCC2C3CCC4=CC(=O)CCC4(C)C3C(O)CC12C (stereo not given)	1.0
61	Cc1ccc(Cn2c(C)c(C(=O)NCc3cccs3)sc2=O)cc1	2.2
62	CCCS(=O)(=O)NC(=O)C1(C)CCN(C(=O)Cc2ccc(OC)cc2)C1 (stereo not given)	-0.3
63	COCCNc1ncnc2c1ncn2[C@H]1CN(CCN2CCOCC2)C[C@@H](CO)O1	1.2
64	CCCCNC(=O)C1(C)CCCCN1C(=O)c1ccc(F)cc1Cl (stereo not given)	-3.5
65	CCCN(C)C1CN(Cc2cn(Cc3cc(C)cc(C)c3)nn2)S(=O)(=O)C1 (stereo not given)	0.8
66	Cc1ccc2c(c1)C1(SC(C)C(=O)N1c1ccc(Cl)cc1)C(=O)N2 (stereo not given)	1.7
67	OC(c1ccccc1)c1nc(-c2cnc3ccccc3c2)cs1 (stereo not given)	1.9
68	CC(=O)Nc1cc(-c2ccc(F)cc2)cn2c(-c3ccc(F)cc3)cnc12	7.3
69	CCOc1ccc(Cl)cc1-c1cc(C(=O)NCc2cc(C(F)(F)F)cc(C(F)(F)F)c2)[nH]n1	2.1
70	COc1ccc(NC(=O)c2cc(C3CCCCN3C(=O)C3CCCCC3)on2)c(C)c1 (stereo not given)	1.0
71	OCCN1CCN(c2ncnc3c2ncn3[C@H]2CN(Cc3ccco3)C[C@@H](CO)O2)CC1	-4.3
72	Cn1ccc2c(N3CCCCC3)cc3c(c21)C1CCC3C1 (stereo not given)	-3.4
73	CC(C)C[C@H]1CN(CCCC[C@H]2CNC(=O)C(=O)N2CCc2ccccc2)C(=O)C(=O)N1CCC1CCCCC1	-1.6
74	COc1cccc(C(O)c2nc(-c3ccccc3OC)cs2)c1 (stereo not given)	1.0
75	COc1ccc2c(CN3CCCCCCC3)cc(=O)oc2c1	0.3
76	C[C@H](CO)N1C[C@H](C)[C@@H](CN(C)Cc2ccccn2)Oc2ncc(Br)cc2C1=O	-3.4
77	O=[N+]([O-])c1ccc(CN2CC(N3CCC(c4ccccc4)CC3)CS2(=O)=O)cc1 (stereo not given)	1.4
78	OC[C@@H]1CN(CCNc2ccccc2)C[C@H](n2cnc3c(NCc4ccncc4)ncnc32)O1	2.7
79	CC(=O)CC1c2cc(F)ccc2C=C(c2ccsc2)N1c1ccc(-c2cccnc2)cc1 (stereo not given)	-1.0
80	CC(C)(C)NC(=O)C(c1ccc(C(F)(F)F)cc1)n1c(=O)c(-c2cc3ccccc3[nH]2)nc2ccccc21 (stereo not given)	2.0

The closing 6 compounds of the part above come first, to join the parts:
#	SMILES	HNF4A DNA FP
75	COc1ccc2c(CN3CCCCCCC3)cc(=O)oc2c1	0.3
76	C[C@H](CO)N1C[C@H](C)[C@@H](CN(C)Cc2ccccn2)Oc2ncc(Br)cc2C1=O	-3.4
77	O=[N+]([O-])c1ccc(CN2CC(N3CCC(c4ccccc4)CC3)CS2(=O)=O)cc1 (stereo not given)	1.4
78	OC[C@@H]1CN(CCNc2ccccc2)C[C@H](n2cnc3c(NCc4ccncc4)ncnc32)O1	2.7
79	CC(=O)CC1c2cc(F)ccc2C=C(c2ccsc2)N1c1ccc(-c2cccnc2)cc1 (stereo not given)	-1.0
80	CC(C)(C)NC(=O)C(c1ccc(C(F)(F)F)cc1)n1c(=O)c(-c2cc3ccccc3[nH]2)nc2ccccc21 (stereo not given)	2.0
81	O=c1oc(=S)oc2c1[C@H](c1ccc(Cl)cc1)O[C@H](C1CCCC1)C2	3.6
82	Cc1c(C(=O)NCc2ccc(F)cc2)sc(=O)n1Cc1ccccc1	0.1
83	COc1ccc(CN2C[C@@H](CO)O[C@@H](n3cnc4c(NCCCO)ncnc43)C2)cc1	2.6
84	COc1cc(CCN(C(=O)c2cc3ccccc3[nH]2)C(c2ccccn2)c2nc3ccccc3[nH]2)cc(OC)c1 (stereo not given)	9.5
85	COC(=O)C1(C(=O)OC)c2cc3c(cc2CN(S(=O)(=O)c2ccc(C)cc2)C1CC(C)=O)OCO3 (stereo not given)	4.4
86	CC(C)(C)n1nnnc1C(C1CC1)N1CCN(C/C=C/c2ccccc2)CC1 (stereo not given)	1.9
87	CCCCC(=O)N(C)c1c(C)nc2ccc(C(=O)N(C)Cc3ccco3)cn12	0.3
88	O=C(CCN1C(=O)c2ccccc2C1=O)c1cnc[nH]1	3.4
89	CN1CCN(C(=O)C[C@H]2C[C@H]3c4cc(NC(=O)NC5CCCCC5)ccc4O[C@H]3[C@@H](CO)O2)CC1	1.3
90	COc1ccc(OC)c(NC(=O)C2(C)CCN2Cc2ccsc2)c1 (stereo not given)	3.8
91	COCCCN1C(=O)C(CC(=O)NCc2cccs2)CC(C(=O)N(C(C)C)C(C)C)=C1C (stereo not given)	0.2
92	CC(C)c1ccc(NC(=O)Nc2nc(C(C)N)cs2)cc1 (stereo not given)	-0.1
93	N#CC(C#N)=NNc1ccc2cn[nH]c2c1	0.3
94	OC[C@H]1O[C@H](c2nc(-c3nc(-c4cccs4)no3)cs2)C[C@@H]1O	1.1
95	COc1ccc(NC(=O)C(C2CC2)n2c(=O)c(-c3cc4ccccc4[nH]3)nc3ccccc32)cc1 (stereo not given)	3.2
96	COc1ccc(C(O)c2ncc(-c3ccccc3)[nH]2)cc1 (stereo not given)	0.8
97	CCC(Oc1ccccc1)C(=O)OCC(=O)Nc1c(C)nn(-c2ccccc2)c1C (stereo not given)	-0.1
98	Cc1ccccc1OC1(C)CCN(Cc2ccc(-c3ccccn3)cc2)C1 (stereo not given)	2.8
99	COc1cccc(OC)c1C(=O)NCCNc1nc2cc(C)cc(C)c2cc1C#N	-4.8
100	COc1ccccc1C(NC(=O)C1CCN(CCc2ccc(Br)cc2)CC1)c1ccccn1 (stereo not given)	-3.0
101	COc1ccc(NC(=O)c2cc(-c3cc(F)ccc3OCC3CCCO3)n[nH]2)c(C)c1 (stereo not given)	5.7

An excerpt; count on the stated rates, not on these rows.
